Bioassay records deposited in PubChem BioAssay by several laboratories.
CSC inhib = blocks cancer stem cells; cancer stem cell-like cells viability, luminescence; inhibition, % at 7.5 µM; hit rate 1.1% among 300,000;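 active = mean at 75% or more and at least half the replicates too; tested in HMLE shEcad cells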;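 note: 0% = median of negative and 100% = median of positive control wells; the first replicate is given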
eIF4H FP inh = inhibitors of RNA binding by human eIF4H. inhibition, % at 35 µM. AID 2012. hit rate 0.94% among 290,000. eIF4H fluorescence polarization binding assay. Q15056;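 active = 50% or more with normal probe brightness, or confirmed in later tests; about a fifth of its hits are not listed in these tables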;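 note: calls also rest on retests at 20 µM and on dose response follow-up; 0% = protein and probe with vehicle and 100% = probe without protein; strong numbers were not always called active; many hits fall short of the cut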
PABP FP inh = PABP-poly(A) binding inhibition; inhibition, % at 35 µM; AID 2014; PABP-poly(A) RNA binding, fluorescence polarization; hit rate 1% among 290,000;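 active = 50% or more with normal probe brightness, or confirmed in later tests; about a fifth of its hits are not listed in these tables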;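 note: calls also rest on retests at 20 µM and on dose response follow-up; controls were probe without protein and protein plus probe with vehicle; some compounds called inactive have numbers as strong as hits; many hits fall short of the cut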
Target sequence (P11940 whole entry, looked up): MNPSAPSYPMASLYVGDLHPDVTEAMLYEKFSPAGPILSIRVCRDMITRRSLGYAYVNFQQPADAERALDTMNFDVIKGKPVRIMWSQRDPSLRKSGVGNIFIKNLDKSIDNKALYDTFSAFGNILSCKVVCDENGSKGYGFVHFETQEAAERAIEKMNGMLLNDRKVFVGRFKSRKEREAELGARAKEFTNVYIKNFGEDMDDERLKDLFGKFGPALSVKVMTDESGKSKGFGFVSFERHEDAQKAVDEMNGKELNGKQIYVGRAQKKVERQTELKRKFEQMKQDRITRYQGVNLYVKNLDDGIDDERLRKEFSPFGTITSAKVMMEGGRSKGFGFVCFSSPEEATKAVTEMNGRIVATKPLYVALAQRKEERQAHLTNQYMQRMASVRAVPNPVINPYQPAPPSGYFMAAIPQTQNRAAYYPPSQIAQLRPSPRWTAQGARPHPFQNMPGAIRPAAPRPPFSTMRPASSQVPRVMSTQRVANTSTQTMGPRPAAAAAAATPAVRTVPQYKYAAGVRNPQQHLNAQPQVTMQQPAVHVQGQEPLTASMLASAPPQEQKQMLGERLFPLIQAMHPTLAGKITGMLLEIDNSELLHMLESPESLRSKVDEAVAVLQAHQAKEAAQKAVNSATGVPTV
HIV Env fusion = blocks HIV Env-driven cell-cell fusion; HeLa-JRFL Env/CEM21 cell fusion, luciferase; inhibition, % at 12.3 µM; AID 651610; hit rate 1.1% among 360,000;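 active = mean replicate inhibition score of at least 50 and every replicate individually at or above 50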;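 note: 0% = plate neutral controls and 100% = maraviroc near 300 nM; one replicate is shown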
UUG fidelity = alters start codon recognition fidelity in yeast; hit rate 0.13% among 350,000; activity score, % at 18.7 µM; S. cerevisiae UUG-firefly luciferase reporter, luminescence/redox ratio;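 active = replicate mean at a twofold rise or more, about +100% in these data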;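 note: firefly luciferase made from a UUG start codon reports start codon fidelity; reporter light over untreated wells divided by growth signal over untreated wells; some hits fall short of that in this replicate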
MT1-MMP act inh = inhibitors of human MT1-MMP activation | P50281 | HT1080 RFP-PRO-GFP cells, GFP/RFP ratio fluorescence, overnight; percent of plate control window, DMSO zero | GFP/RFP ratio change, % at 20 µM | hit rate 0.061% among 360,000 | AID 651647;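 active = GFP/RFP ratio change of at least 30% with cell ATP level not reduced by more than half and red fluorescence within 50% of control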; note: strong numbers were not always called active
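system = RFP-PRO-GFP reporter HT1080 cells | dosing = 20 µM single dose, 1% DMSO | timing = overnight cell settling, then overnight compound exposure, 37 °C, 5% CO2 | read-out basis = GFP/RFP fluorescence ratio | controls = DMSO and RFP-L50D-GFP cell wells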
Rce1 inh = yeast Ras-converting enzyme inhibition; Q03530; yeast membranes, quenched prenylated peptide cleavage fluorescence; calls only; hit rate 0.27% among 290,000;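 active = fall in fluorescence gain of 50% or more versus controls, with final raw signal at or below 3038400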;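 note: plate controls were neutral control wells for no effect and wells lacking membranes for full effect; tested at 10 µM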
Target sequence (Q03530 whole entry, looked up): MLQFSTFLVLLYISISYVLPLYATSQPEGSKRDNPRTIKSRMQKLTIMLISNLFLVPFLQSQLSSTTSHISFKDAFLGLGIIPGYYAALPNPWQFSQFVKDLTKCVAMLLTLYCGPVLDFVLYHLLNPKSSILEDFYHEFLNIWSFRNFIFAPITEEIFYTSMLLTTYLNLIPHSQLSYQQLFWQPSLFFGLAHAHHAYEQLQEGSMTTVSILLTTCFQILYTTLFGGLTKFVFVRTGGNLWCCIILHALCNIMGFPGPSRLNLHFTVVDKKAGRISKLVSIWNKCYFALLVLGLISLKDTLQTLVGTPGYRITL
eIF4H FP inh retest = also measured in eIF4H FP inh; calls as there; inhibition, %; compound at 20 µM; confirmation average;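 mean of two retest wells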
PABP FP inh retest = further read-out of PABP FP inh, marked with its call; inhibition, %; compound at 20 µM; confirmation repeats;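 mean of two retest wells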
MT1-MMP act inh RFP = further read-out of MT1-MMP act inh, marked with its call; RFP signal change, %; measured here: RFP expression control read;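 0 = vehicle wells; hits needed this value within 50% of zero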
Starred values were filed as active, the others as inactive; i = inactive; · = no result given; & = joins results of further samples.

SMILES	CSC inhib	eIF4H FP inh	PABP FP inh	HIV Env fusion	UUG fidelity	MT1-MMP act inh	MT1-MMP act inh RFP	Rce1 inh	others
O=C(CN1CCc2cc3c(cc2C1)OCCCO3)Nc1ccccc1	0	4	6	·	-12	-4	-5	i
CCSc1nnc(NC(=O)[C@H](C)N2C(=O)C3CC=CCC3C2=O)s1 (stereo not given in full)	-3	7	2	9	-1	6	2	i
O=C(CSc1nc2ncc(Cl)cc2[nH]1)NCCc1ccc(F)cc1	20	-4	-2	9	-2	-2	-5	·
Cn1cccc1/C=N/NC(=O)c1ccn[nH]1	0	12	-16	-11	·	-1	5	i
Cc1ccccc1CC1(CO)CCCN(C(=O)CCC(=O)c2ccccc2)C1 (stereo not given)	6	-1	-11	1	5	3	-1	·
O=Cc1cn(CC(=O)NCC2CCCO2)c2ccccc12 (stereo not given)	7	6	10	·	-7	3	1	i
O=C(CCNC(=O)c1ccc(Cl)cc1)Nc1cccc(S(=O)(=O)N2CCCCCC2)c1	-14	·	·	13	·	-4	-2	i
Cc1cccc(NC(=O)c2cc(=O)c3ccccc3o2)n1	-18	5	1	-136	-9	2	0	i
CCOC(=O)c1c(S(=O)(=O)N2CCN(C3CCCCC3)CC2)c(C)n(C)c1C	0	-2	14	4	-3	3	2	i
O=C(Nc1nnc(C2=COCCO2)o1)c1cccc(C(F)(F)F)c1	·	-1	1	-2	-22	0	2	i
Cc1ccc(-n2nnc(-c3cc4ccccc4n3C)n2)cc1	12	4	0	-92	-12	2	8	i
CC1=NOC2(C1)/C(=N/O)CCC/C2=N\O (stereo not given)	-12	12	1	-25	-11	6	9	i
O=C(COC(=O)c1ccccc1Br)Nc1cccnc1Cl	-12	·	·	·	-12	-4	-1	·
O=C(/C=C/c1cccs1)NC1CCS(=O)(=O)C1 (stereo not given)	-9	-1	-5	2	·	-1	4	i
CCN1CCCC1CNC(=O)c1cc2c(C)nc3ccccc3c2o1 (stereo not given)	12	3	16	-102	-10	1	2	i
CCOc1ccc(C(=O)NNC(=O)CNC(=O)c2ccc(C)s2)cc1OC	·	·	·	-21	-10	0	3	·
CCC(=O)Nc1nnc(S(=O)(=O)N2CCCCCC2)s1	-2	2	-2	-3	-5	·	·	i
COC(=O)c1cc(C(=O)c2ccc(C(C)(C)C)cc2)c[nH]1	10	-20	4	-2	-4	4	-9	i
COc1ccc(NC(=S)NCCN2CCOCC2)c(OC)c1	-10	·	·	-45	-9	3	3	i
O=C(COc1cccnc1[N+](=O)[O-])N1CCN(S(=O)(=O)c2ccccc2)CC1	·	10	2	-12	·	2	5	i
C1CCCC(NC2=NCCO2)CCC1	-4	3	-2	·	-19	0	0	i
O=C(/C=C/c1ccc(Cl)cc1Cl)NC(=S)Nc1ccc(CN2CCOCC2)cc1	18	-1	4	·	-20	7	-7	i
CS(=O)(=O)Nc1cccc(-c2cn3c(n2)SCC3)c1	-3	2	-7	0	-9	2	5	i
O=C1CSC(c2ccccc2[N+](=O)[O-])N1c1ccc(O)cc1 (stereo not given)	-7	4	-7	-2	·	1	3	i
CCCCN1C(=N)N([C@@H](CN2CCC[C@H]2CN2C(N)=NC[C@@H]2Cc2ccccc2)C(C)C)C[C@H]1Cc1ccccc1	8	·	·	-13	-7	2	1	·
CCCCC(=O)Nc1nn(C)c2nc3c(C)cccc3cc12	-4	-9	1	·	-9	-4	2	i
Cc1cc(N/N=C/c2ccccc2)nc(N2CCOCC2)n1	-10	-9	0	1	-6	1	-4	i
O=C(Nc1ccc(C(=O)N2CCOCC2)cc1)C1CCC1	·	·	·	7	-9	3	5	·
O=C(c1ccccc1)c1ccccc1C(=O)N1CCN(Cc2ccccc2F)CC1	·	·	·	2	-12	0	-4	·
O=C(CSc1nc2ncc(Cl)cc2[nH]1)Nc1cccc(F)c1	-10	-2	4	5	-20	-4	-10	i
CCCCNC(=O)C1(C)CCCCN1C(=O)c1ccc2ccccc2n1 (stereo not given)	·	·	·	10	-5	2	2	·
O=C(O)CC1(CC(=O)NCc2ccc(Cl)cc2)CCCCC1	·	-2	2	13	2	-2	0	i
Cn1nnnc1SCc1csc(C2C(C#N)=C(N)OC3=C2C(=O)CCC3)c1 (stereo not given)	11	-1	6	10	-6	0	1	i
COc1cc(/C=C\C(=O)OCn2nnc3ccccc3c2=O)cc(OC)c1OC	-5	-4	2	29	-6	5	3	i
CCC(=O)N/N=C(\C)CC(=O)Nc1ccc(Cl)cc1	19	2	8	16	·	1	1	i
O=S(=O)(c1ccc(C2CCCCC2)cc1)N1CCOCC1	-2	8	-7	·	·	3	-2	i
O=C(Nc1nnc(-c2ccc3c(c2)CCCC3)o1)c1ccc(Cl)cc1Cl	68	7	-2	6	-19	3	3	i
CC(=O)NC(C)c1nc2ccccc2n1Cc1ccccc1F (stereo not given)	-17	-3	10	-26	-5	-4	-5	i
COc1ccc(CCNC(=O)C(=O)NCc2ccccc2C)cc1OC	-5	-2	-7	16	-12	-1	2	i
CCN1C(=NCc2cccc(Cl)c2)N[C@@H](c2cccc(F)c2)C(C(=O)OC)=C1C	12	-12	3	32	-14	-4	-2	i
CC(C)N(Cc1ccccc1)C(=S)NC1CCCCC1	-4	4	-6	8	·	0	-2	i
O=c1c2c3c(sc2ncn1/N=C/c1ccncc1)CCCC3	-7	4	-4	-3	-14	-2	-3	i
Cc1ccc(/C=N\Nc2nc3ccc(Cl)cc3[nH]2)o1	-2	-10	4	-24	-25	7	-11	i
COC(=O)c1cccc(NC(=O)CSc2nnc(COc3ccccc3)n2C)c1	6	4	14	·	-15	3	8	i
CC(C)NC(=O)c1ccc2c(c1)N(CC(=O)N1CCOCC1)C(=O)C(C)(C)O2	3	0	14	14	-16	-3	1	i
CN(C)c1ccc(NC(=S)NC(=O)/C=C/c2ccco2)cc1	-8	4	3	-5	·	7	2	i
Cc1nc(NC(=O)c2ccccc2)sc1-c1csc(Nc2ccc(Cl)cc2)n1	-6	-1	8	·	·	·	·	i
O=C(CCCC(=O)N(CC(=O)NC1CCCCC1)CC1CCCO1)Nc1ccccn1 (stereo not given)	-1	4	15	·	-11	-3	-3	i
O=C1c2ccccc2C(O)(c2ccccc2)N1C1CC1 (stereo not given)	-9	-2	2	9	-12	2	5	i
CC1CCCC(C)N1C(=O)COC(=O)COc1ccccc1C#N (stereo not given)	·	·	·	-1	-13	3	4	·
O=C(N1CCN(c2ccccn2)CC1)N1c2ccccc2Sc2ccccc21	73	-7	1	-68	13	-4	-11	i
O=C(N=Nc1ccc(NOC(=O)c2ccccc2Br)cc1)c1ccccc1O	53	9	-10	-10	·	·	·	i
Cc1cccc(NC(=O)C(C)Oc2ccccc2C)n1 (stereo not given)	0	1	14	·	-2	-2	4	i
O=C(O)C1[C@H]2C(=O)N(C3CCCC3)C[C@]23C=C[C@H]1O3 (stereo not given in full)	6	4	-5	·	-10	-2	1	i
COc1ccc(C2C3=C(CCCC3=O)Nc3nc(SCc4ccccc4)nn32)cc1OC (stereo not given)	8	5	-3	7	-8	-6	-9	i
Cc1ccc(-c2nnn(CC(=O)Nc3ccc4nn(-c5ccccc5)nc4c3)n2)o1	·	2	6	-43	9	-2	1	i
COc1ccc(C(=O)N2CCCCCCC2)cc1OC1CCN(C(C)C)CC1	6	-2	3	2	-12	0	2	i
COc1ccc(NC(=O)C2CCCN(S(=O)(=O)c3c(C)[nH]c(=O)[nH]c3=O)C2)cc1 (stereo not given)	-7	-4	6	·	-13	-4	3	i
CC(C)(C)NC(=O)[C@@H]1CN(Cc2cccnc2)CCN1C[C@@H](O)C[C@@H](Cc1ccccc1)C(=O)N[C@H]1c2ccccc2C[C@H]1O	3	·	·	-23	-4	·	·	i
CC(C)(C)C(=O)N1CCN(c2ccnc3cc(Cl)ccc23)CC1	9	23	-2	40	-14	1	-2	i
More structures:
SMILES	CSC inhib	eIF4H FP inh	PABP FP inh	HIV Env fusion	UUG fidelity	MT1-MMP act inh	MT1-MMP act inh RFP	Rce1 inh	others
COc1cccc(NC(=O)CSc2nc(O)c(C)c(=O)n2-c2ccc(C)cc2)c1	-7	-11	-5	0	4	6	2	·
O=C(O)c1cccc(NC(=O)c2ccccc2NC(=O)c2ccccc2F)c1	-14	-2	0	-19	-14	-1	3	i
CCN1C(=O)/C(=C\c2cccc(OC(=O)c3ccco3)c2)SC1=S	·	-4	-10	-6	-20	-7	1	i
O=C(NC1CC1)C(Cc1ccccc1)NS(=O)(=O)c1ccccc1F (stereo not given)	-15	0	-4	14	-2	1	6	i
O=C(NCc1ccccc1)c1csc2c1CCCC2	-8	4	-1	15	-21	1	4	i
O=C(Nc1cccnc1)Nc1cc(Cl)cc(Cl)c1	36	2	18	16	·	-2	-12	i
C[C@H](CO)N1C[C@H](C)[C@@H](CN(C)C(=O)NC2CCCCC2)Oc2ccc(NS(=O)(=O)c3cn(C)cn3)cc2C1=O	-3	·	·	-15	-3&-1	4	5	·
Nc1ccc(-c2nc(-c3ccccc3)nc3ccccc23)cc1	40	-4	10	8	-9	-2	-1	i
CC(C)C(=O)NC(Nc1cccc2cccnc12)C(Cl)(Cl)Cl (stereo not given)	12	2	-2	-71	-10	-10	-6	i
O=C(Nc1nnc(-c2ccc(F)cc2)o1)c1cc(Cl)sc1Cl	·	16	4	·	·	5	-4	i
COc1ccc(C2C3=C(CC(C)(C)CC3=O)Oc3ncn(CCCn4ccnc4)c(=N)c32)cc1 (stereo not given)	16	0	3	·	·	1	-1	i
CCn1c(=O)cc(N2CCC3(CC2)OCCO3)[nH]c1=O	-12	-7	-5	·	-13	3	2	i
NNC(=O)c1cc2ccccc2cc1NS(=O)(=O)c1ccccc1	-7	1	2	1	-9	7	0	i
C[C@@]12CCC3[C@@](CCC4[C@@]3(C)CCC[C@@]4(C)C(=O)Nc3ccc(Cl)cc3)(CC1=O)C2 (stereo not given in full)	7	·	·	16	-5	-1	-9	·
CC(Sc1nc2cc(Cl)ccc2s1)C(=O)Nc1ccc2c(c1)OCO2 (stereo not given)	23	1.8*	63	-27	·	3	0	i	eIF4H FP inh retest=65*;PABP FP inh retest=38
CCOc1ccnc(OCC)c1Br	7	-3	-3	·	-1	-5	2	i
COc1cc(CCC(=O)Nc2cc(Cl)ccc2N2CCN(C)CC2)cc(OC)c1OC	-4	-4	-15	·	-11	-4	-2	i
O=C(c1ccccc1Nc1ccc(SC(F)F)cc1)N1CCCCCC1	38	8	10	34	-11	-5	-3	i
CN(C)CCNC(=O)C1CCN(S(=O)(=O)c2ccc3ccccc3c2)CC1	62	-6	-8	10	-12	0	4	i
Cn1c(=O)c2c(nc(CN3CCN(Cc4ccccc4)CC3)n2Cc2cccc(Cl)c2)n(C)c1=O	25	4	-7	-63	3	-5	-7	i
CC(C(=O)NCC1(c2ccccc2)CCCC1)N1CCCC1 (stereo not given)	-10	-5	-13	·	-21	-9	-1	i

Reprinted at random: 3 compounds from above
SMILES	CSC inhib	eIF4H FP inh	PABP FP inh	HIV Env fusion	UUG fidelity	MT1-MMP act inh	MT1-MMP act inh RFP	Rce1 inh	others
O=C(CSc1nc2ncc(Cl)cc2[nH]1)NCCc1ccc(F)cc1	20	-4	-2	9	-2	-2	-5	·
CC(C)(C)C(=O)N1CCN(c2ccnc3cc(Cl)ccc23)CC1	9	23	-2	40	-14	1	-2	i
Cc1cc(N/N=C/c2ccccc2)nc(N2CCOCC2)n1	-10	-9	0	1	-6	1	-4	i

The list is partial; the hit share may differ from the screen's.
